# Source: PubChem (PCMD)
# Biofilm kill mix: mixture kills Candida albicans biofilm cells | AID 1242 | C. albicans biofilm persisters + clotrimazole, fluorescence viability; primary screen in compound mixtures of four per well | inhibition, % at 7.6 µM | 0.02% of 120,000 active;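 active means inhibition above 30.3% in the primary screen of four-compound pools, then above 30% when the compound was retested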;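 further: compounds exposed to preformed 24 h biofilms for 48 h; the number belongs to the whole pool; some results filed as inactive read as strong as hits; inactives centre near 12; 0% = biofilm with clotrimazole alone and 100% = kill control; retested singly at about 60 µM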
#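 Probe or stimulus – Clotrimazole 50 µg/mL co-treatment · System – C. albicans biofilms · Schedule – 24 h biofilm formation, then 48 h compound exposure, 37 °C · Evaluation – percent inhibition of biofilm viability · Technique – 2-h Alamar Blue fluorescence, 535/590 nm excitation/emission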
# * marks the source's active call; other numbers are inactive results. A portion of the library; count on the stated rates, not on these rows.
SMILES | Biofilm kill mix
CCc1ccc(C(=O)N/N=C/c2cccc3ccccc23)nc1 | 10.7
COc1ccc(-n2c(SCC(=O)N3CCOCC3)nnc2C(C)N2CCCCC2)cc1 (stereo unspecified) | 14.2
Cc1ccc(/C=N/NC(=O)CSc2nc3ccccc3n2Cc2ccccc2)o1 | 13.8
O=C(Nc1ccc(N2CCOCC2)c(S(=O)(=O)Nc2ccc(Cl)cc2)c1)c1cnccn1 | 15.8
CC/C(=N\NC(=O)OC)c1ccc(OC(F)F)cc1 | 15.1
COCC(=O)Nc1ncc(S(=O)(=O)c2ccc([N+](=O)[O-])cc2)s1 | 13.4
CC(=O)Nc1ccc2nc(C)n(Cc3ccc(Cl)cc3)c(=O)c2c1 | 16.0
COc1ccc(N2CCN(Cc3nc4sc(C)c(C)c4c(=O)[nH]3)CC2)cc1 | 13.5
O=[N+]([O-])c1cn(Cc2ccccc2)cn1 | 11.0
Cc1cc(C)cc(C(=O)NCC(=O)OCC(=O)NCC(F)(F)F)c1 | -4.6
O=c1oc2ccccc2nc1/C=C(\O)c1ccccc1 | 17.0
CCN(CC)C(=O)C1CCN(Cc2cn(C)nc2-c2ccc(Oc3ccccc3)cc2)CC1 | 8.6
COc1ccc(CCN(C)CCC(=O)Nc2cccc(C)c2)cc1OC | 12.6
O=C(Nc1ccc([N+](=O)[O-])cc1)Nc1nc(-c2ccc(Cl)s2)cs1 | 18.4
Cc1ccc(C(=O)Nc2ccc(C(=O)N3CCCCC3)cc2)cc1 | -2.3
O=c1[nH]c(=S)[nH]cc1Oc1ccc(Cl)cc1Cl | 9.7
COc1ccc(-c2ccnc3ncnn23)cc1 | 17.7
Cc1cccc(NC(=O)COC(=O)CCc2ccc(S(=O)(=O)N3CCOCC3)cc2)c1C | -3.5
COC(=O)C(C)Sc1ccc2nnc(CCNS(=O)(=O)c3ccccc3)n2n1 (stereo unspecified) | 15.8
COCCNC(=O)C(c1ccc(C)o1)N(CCOC)C(=O)Cn1nnc2ccccc21 (stereo unspecified) | 24.4
O=C(NCc1ccccn1)C(=O)Nc1ccccc1 | 15.6
CCOC(=O)Cn1nnnc1CN1CCN(c2ccc(OC)cc2)CC1 | 0.1
Cc1cc(C)nc(/N=C(\N)Nc2ccc3c(c2)OCCO3)n1 | 10.3
CN(CC(=O)O)S(=O)(=O)c1ccc2[nH]c(=O)c(=O)[nH]c2c1 | 14.8
Cc1cc2cc(CCNC(=O)C3c4ccccc4Oc4ccccc43)c(=O)[nH]c2cc1C | 3.0
CC(=O)Nc1ccc(NC(=O)COC(=O)c2n[nH]c3ccccc23)cc1 | 8.9
CCCC(C(=O)NCc1ccccc1)N(C(=O)Cn1nnc(-c2cccs2)n1)c1ccc2c(c1)OCCO2 (stereo unspecified) | -2.4
COc1ccc(C(=O)CSc2ccc3nnc(-c4cccnc4)n3n2)cc1 | 14.8
O=C(CCOc1ccc(F)cc1)Nc1nccs1 | 16.4
C1CCN(Cc2nnnn2CC2CCCO2)CC1 (stereo unspecified) | 18.5
C=CCn1c(SCC(N)=O)nnc1-c1cc2c(s1)CCC(CC)C2 (stereo unspecified) | 13.2
COc1ccc(Cc2nnc(SCC(=O)N3CCCCC3)o2)cc1 | 33.6
CC(C)N1CCN(Cc2ccc(C#CC(C)(C)O)cc2)CC1CCO (stereo unspecified) | 6.3
O=C(/C=C/c1ccc2c(c1)OCO2)NCCSCc1c(Cl)cccc1Cl | 3.0
CCCCNC(=O)c1ccc(NC(C)=O)c(Cl)c1 | -3.2
CC1(OC(=O)CCc2ccccc2)C(=O)C=C2C=C(c3ccc(C#N)cc3)N(CCN3CCOCC3)C=C2C1=O (stereo unspecified) | 12.7
O=C1CCCc2ccccc2N1Cc1ccc(F)cc1 | 21.0
Cc1cc(C)c2sc(N(CCN(C)C)C(=O)c3cc(Cl)sc3Cl)nc2c1 | 13.5
Cc1cccc(C(C)C)c1NC(=O)c1ccc(CN(c2ccccc2)S(=O)(=O)c2ccccc2)cc1 | 5.6
COc1ccc2c(c1OC)C(=O)OC2Nc1nc(-c2cccc([N+](=O)[O-])c2)cs1 (stereo unspecified) | 14.9
CC(C)c1nc(Cl)c(C#N)c2c1CCCC2 | 19.2
Cc1cccc(OCCC(=O)NCC(=O)Nc2c(C)cccc2C)c1 | 20.2
CCOc1cc(/C=N/NC(=O)c2c(-c3ccccc3)noc2C)ccc1O | 8.1
Cc1onc(-c2ccccc2)c1C(=O)NC(=S)NNC(=O)c1ccc(O)cc1O | 10.2
CCc1ccc(NC(=O)/C(C#N)=C/c2cn(CC(=O)O)c3ccccc23)cc1 | -0.4
O=C(Cn1nc(-c2ccccc2)ccc1=O)NCc1ccc(F)cc1 | 8.2
CSc1ccccc1C(=O)Nc1ccccc1C(=O)NC(C)C | 20.8
CCOc1ccc(OCCCCNC(C)(C)C)cc1 | 15.2
CC(NC(=O)CNC(=O)C1O[C@@H]2OC(C)(C)O[C@@H]2[C@H]2OC(C)(C)O[C@@H]12)C(=O)O (stereo partly specified) | -3.7
O=C(Nc1ccc(S(=O)(=O)Nc2nccs2)cc1)/C(=C/c1ccccc1Cl)NC(=O)c1ccccc1 | 3.7
Cc1onc(-c2ccccc2)c1CNS(=O)(=O)c1cccc(Cl)c1 | 16.1
C=CCc1cccc2cc(C(=O)Nc3ccc(S(=O)(=O)Nc4nnc(CC)s4)cc3)c(=O)oc12 | 9.3
N#CCN1CCC2(O)CCCCC2C1c1ccc2c(c1)OCO2 (stereo unspecified) | 13.6
Cc1ncsc1CCC(=O)N1CCCC(C(=O)c2ccc3c(c2)OCO3)C1 (stereo unspecified) | 15.7
Cc1cc(SCc2cc(=O)n3ccsc3n2)nc2ccccc12 | 16.1
CCC(C(=O)NCc1ccco1)N(C(=O)CNS(=O)(=O)c1ccccc1)c1ccccc1C (stereo unspecified) | 22.0
N/C(Cn1cncn1)=N\NC(=O)c1ccc(Cl)cc1Cl | 14.9
CC(=O)c1cccc(CN2CCCC(CCC(=O)NCc3ccc(C)o3)C2)c1 (stereo unspecified) | -5.5
NNC(=O)c1cnn(-c2ccccc2)c1C(F)(F)F | 14.8
CC(=O)Nc1cccc2c1C(=O)N(c1cccc(C)c1)C2=O | 11.1

# An excerpt of these results, with each value named.
> C=CCc1cccc2cc(C(=O)Nc3ccc(S(=O)(=O)Nc4nnc(CC)s4)cc3)c(=O)oc12
  Biofilm kill mix = 9.3

> CC(NC(=O)CNC(=O)C1O[C@@H]2OC(C)(C)O[C@@H]2[C@H]2OC(C)(C)O[C@@H]12)C(=O)O (stereo partly specified)
  Biofilm kill mix = -3.7

> CC(=O)c1cccc(CN2CCCC(CCC(=O)NCc3ccc(C)o3)C2)c1 (stereo unspecified)
  Biofilm kill mix = -5.5

> CCC(C(=O)NCc1ccco1)N(C(=O)CNS(=O)(=O)c1ccccc1)c1ccccc1C (stereo unspecified)
  Biofilm kill mix = 22.0

# More structures
SMILES | Biofilm kill mix
COc1cnc(-c2ccccn2)nc1Sc1ccccc1 | 31.1
FC(F)(Cl)c1nnc2ccc(Cl)nn12 | 11.3
CN(C)S(=O)(=O)c1ccc(=S)[nH]c1 | 12.6
COc1ccc(C2/C=C\CN(Cc3ccco3)CC(=O)N2Cc2ccc(F)cc2)cc1 (stereo unspecified) | 16.4
O=c1[nH]c(=O)c2nnc(N/N=C\c3ccc(O)cc3)nc2[nH]1 | 17.9
Cc1ccc(S(=O)(=O)N(C)CC(=O)OCC(=O)NC(=O)Nc2ccc3c(c2)OCCO3)cc1 | 24.3
CCOc1ccc(NC(=O)CCC(=O)NNS(=O)(=O)c2ccccc2[N+](=O)[O-])cc1 | 51.9
Cc1cc(NN)nc2ccc(Cl)cc12 | 16.9
CCOC(=O)c1[nH]c2c(c1-c1ccccc1)C(=O)CC(c1ccc(Cl)cc1)C2 (stereo unspecified) | 4.3
CC1(C)CCc2nc(SCc3ccccc3)c(C#N)cc2C1 | 12.4
COC(=O)c1ccc(NC2=C(Cl)C(=O)OC2OC(=O)c2ccccc2)cc1 (stereo unspecified) | 10.2
CC(C)(C)OC(=O)NCCCC[C@H](NC(=O)c1nc[nH]c1C(=O)NCc1ccccc1)C(=O)OC(C)(C)C | 18.2
CNC(=S)NNC(=O)c1cc(C(C)(C)C)nn1Cc1ccc(F)cc1 | 19.6
Cc1c(N=N/C(C(=O)Nc2ccccc2)=C(/O)c2ccccc2)c(=O)n(-c2ccccc2)n1C | 0.0
Cc1cc(Br)c2nc3c(c(C(=O)O)c2c1)CCCCC3 | 0.4

# (cont.)
Structure,Biofilm kill mix
N#C/C(=C\c1ccc([N+](=O)[O-])o1)C(=O)Nc1ccc(F)cc1,12.8
CC1=CC(C)(C)N(C(=O)CSc2nncn2C)c2ccccc21,14.0
COc1ccc2cnnc(SCC(=O)Nc3ccccc3)c2c1OC,1.8
CCOCCCNC(=O)C(=O)NCCCOCC,23.1
COc1ccc(OC)c(/C=C/C(=O)Nc2ccc3c(c2)CCC3)c1,17.2
O=C(CSc1nc2ccccc2o1)Nc1nc(-c2ccccc2)c(-c2ccccc2)s1,21.4
Cc1ccc(C2C(C(N)=S)=C(N)OC3=C2C(=O)CC(C)(C)C3)cc1 (stereo unspecified),7.7
CC(N=Cc1cc([N+](=O)[O-])ccc1O)c1ccccc1 (stereo unspecified),12.9
O=C(CCc1c[nH]c2ccccc12)NCC(=O)Nc1ccc(F)c(F)c1F,11.3
Nc1ccc(S(=O)(=O)Nc2nccc(/C=C/c3ccc(Br)s3)n2)cc1,15.0
Cc1sc2ncnc(SCC(=O)c3ccc4c(c3)OCCO4)c2c1-c1ccccc1,15.4
CCCCNC(=S)Nc1ccc(OC)nc1,5.9
COc1ccc(N2C(=O)C(O)C2c2ccc(C)cc2)cc1 (stereo unspecified),17.8
O=C(C[n+]1cccc(CNC(=O)c2ccc(OC(F)F)cc2)c1)Nc1cc(C(F)(F)F)ccc1Cl,11.6
CCn1c(C)nc2cc(C(=O)NNC(=S)Nc3ccc(F)cc3)ccc21,21.4
O=c1c2sccc2nc(SCc2ccc([N+](=O)[O-])cc2)n1Cc1ccccn1,18.7
CCC1COC(c2cccn2Cc2ccc(Cl)cc2)=N1 (stereo unspecified),11.9
Cc1ccc(C2CCN(C(=O)Nc3ccc(F)cc3)C2)cc1 (stereo unspecified),3.1
Cc1ccc(C(=O)N2CCOCC2)c(F)c1F,2.9
CCC(C)[C@H](NC(=O)N1CCCCCC1)C(=O)OC (stereo partly specified),8.4
O=C(COc1ccc(Br)cc1CNCCCN1CCOCC1)Nc1ccccc1,12.2
CCOc1nc(N2CCOCC2)nc(C)c1[N+](=O)[O-],22.4
Cc1ccc(NC(=O)CSc2nc3ccccc3c(=O)n2Cc2cccs2)cc1,-12.2
Cc1ccc([N+](=O)[O-])cc1NC(=O)Cc1cccs1,26.0

# Single entries from the entries so far:
# Biofilm kill mix, Cc1ccc(NC(=O)CSc2nc3ccccc3c(=O)n2Cc2cccs2)cc1 = -12.2
# Biofilm kill mix, Cc1ccc(C2CCN(C(=O)Nc3ccc(F)cc3)C2)cc1 (stereo unspecified) = 3.1

# Next results follow:
Structure,Biofilm kill mix
CCn1c(/C=C/c2c(C)[nH]c3ccccc23)nc2ccccc2c1=O,1.0
CSc1nnc2c(n1)c(C)nn2-c1ccc(C)cc1,18.7
CC12CC3CC(C)(C1)CC(NCc1ccncc1)(C3)C2,13.3
Cc1cccnc1NC(=S)Nc1ncccc1C,18.1
Clc1cc(Br)ccc1OCCN1CCOCC1,13.2
CCOC(=O)C1(CCc2ccccc2)CCN(C2Cc3ccccc3C2)CC1,22.0
CCOC(=O)C1=C(C)NC(C)=C(C(=O)OCC)C1C(=O)OCC(=O)NC,13.4
Cc1nc(N2CCOCC2)c2c(C)c(C(=O)Nc3ccc(F)cc3Cl)sc2n1,6.4
CC(C)CC(=O)N1CCN(Cc2ccccc2[N+](=O)[O-])CC1,3.6
CC1C/C(=N\NC(=O)c2ccc([N+](=O)[O-])cc2)CC(C)(C)C1 (stereo unspecified),25.1
COc1ccc2c(c1)C(=O)[C@H](O)[C@@H](c1ccc(OC)c(Br)c1)O2,16.7
NNC(=O)CC12CC3CC(C1)CC(n1ncnn1)(C3)C2,6.6
Cc1ccc(NS(=O)(=O)c2ccc(CCC(=O)N3CCCC3)cc2)cc1,25.4
COc1ccccc1CNC(=O)/C=C/c1ccc(Br)o1,43.3
CCOC(=O)N=Nc1c(O)n(Cc2ccccc2)c2ccccc12,10.6
Cc1ccccc1C1NC(c2ccccc2C)C([N+](=O)[O-])C(C)(C)C1[N+](=O)[O-] (stereo unspecified),5.8
CN(C(=O)c1sc2nc(N3CCOCC3)c3c(c2c1N)CCCC3)c1ccccc1,21.0
Cc1ccc(Cl)cc1NC(=O)C(NS(=O)(=O)c1cccs1)c1ccccc1 (stereo unspecified),16.1
COc1ccc(CNC(=O)C(CCSC)NS(=O)(=O)c2ccccc2F)cc1 (stereo unspecified),-4.2
COc1ccccc1/C=C/C=N/n1c(-c2ccc(Cl)cc2)n[nH]c1=S,10.9
O=C(NNC1CC(=O)N(c2ccc(Br)cc2)C1=O)c1cccnc1 (stereo unspecified),3.2
O=C(Nc1cc(F)cc(F)c1)c1ccc(NCCCN2CCCCCC2)c([N+](=O)[O-])c1,-2.2
COc1ccccc1NC(=S)N1CCOCC1,11.2
CCOP(=O)(OCC)c1nc(-c2cccc3ccccc23)oc1NCc1ccc(OC)cc1,11.4
CCOC(=O)C(C)n1cnc2c1c(=O)[nH]c(=O)n2C (stereo unspecified),10.7
O=C(CCCn1c(=O)oc2ccccc21)N1CCN(c2ccc(F)cc2)CC1,18.9
CC(C)Oc1cccc(C(=O)C2CCCN(Cc3cccn3-c3ccccn3)C2)c1 (stereo unspecified),16.0
O=C(Nc1cccc(C(=O)O)c1)/C(=C/c1ccc2c(c1)OCO2)NC(=O)c1cccc(Br)c1,18.0
Cc1csc(SCC(=O)Nc2cccc(S(=O)(=O)N3CCOCC3)c2)n1,14.6
CCOn1c(=O)c(C)[n+]([O-])c2ccccc21,7.9
COc1cc(CCC(=O)OCC(=O)NCc2ccc(Cl)cc2)cc(OC)c1OC,10.3
COc1ccc(/C=C2\CCCc3c2nc2ccc(C)cc2c3C(=O)O)cc1O,22.4
